Screens from PubChem BioAssay.
Six1-Eya2 inh – qHTS Assay for Inhibitors of the Six1/Eya2 Interaction. Homeobox protein SIX1 (Homo sapiens) + Protein phosphatase EYA2 (Homo sapiens), …. AlphaScreen GST-Six1/His-Eya2 binding, biochemical; stronger effect = lower value; control for the full effect not named in the record. activity change, % (no concentration beside the values). actives 0.56% (n = 360,000). AID 651725, 2012; in the data active = activity change below about -65%; inconclusive = about -30% to -65%; inactive = above about -30%; note: % is set by controls: 0 for no effect and ±100 for the full control effect; compound concentration not given in the record
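Homogeneous AlphaScreen proximity assay pairing GST-Six1 with His-tagged Eya2 (added as 5X mix: 250 nM and 500 nM) in 50 mM Tris pH 8.0, 300 mM NaCl, 1 mM TCEP. Glutathione donor and nickel acceptor beads; 1 h, 37 °C, dark.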
PINK1 modulator – A Quantitative High throughput Screen to Identify Chemical Modulators of PINK1 Expression | PINK1 immunofluorescence, high-content cytometry, 24 h | Potency, µM (top dose mostly 76.6 µM), for inactives: at the top dose activation (PINK1 increase), actives largely listed as activators | actives 0.2% (n = 410,000) | AID 624263, 2012; active = well fitted activation curve with a large enough effect; inconclusive = small, poorly fitted or top-dose-only effect; inactive = flat fitted curve, though single readings scatter; cell line not stated here;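 note: potency is the fitted concentration of half-maximal effect; % of control where 0% means no effect; nearly all actives have a fitted effect of over 65% in size; a mitochondrial uncoupler was the plate control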
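Stable cell line, 250 cells/well, 12 h attachment; compounds pinned at 5 concentrations, 24 h; CCCP control. Fixed with nuclear dye, primary antibodies 12 h at 10 degrees C, secondary plus cell stain; laser-scanning cytometer read.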
D2 ag – Beta-Arrestin HTS for Positive Allosteric Modulators of the Human D2 Dopamine Receptor: Agonists. activation, % (test concentration not listed). D(2) dopamine receptor (Homo sapiens), P14416. actives 0.084% (n = 360,000). DiscoveRx PathHunter D2 beta-arrestin, luminescence, 90 min; 100% = 57 uM dopamine signal. AID 624465, 2012; in the data active = activation above about 40%; inconclusive = about 15% to 40%; inactive = below about 15%; note: compound concentration not given in the record; the text of the record calls up to 30% inactive
Target sequence (P14416 whole entry, looked up): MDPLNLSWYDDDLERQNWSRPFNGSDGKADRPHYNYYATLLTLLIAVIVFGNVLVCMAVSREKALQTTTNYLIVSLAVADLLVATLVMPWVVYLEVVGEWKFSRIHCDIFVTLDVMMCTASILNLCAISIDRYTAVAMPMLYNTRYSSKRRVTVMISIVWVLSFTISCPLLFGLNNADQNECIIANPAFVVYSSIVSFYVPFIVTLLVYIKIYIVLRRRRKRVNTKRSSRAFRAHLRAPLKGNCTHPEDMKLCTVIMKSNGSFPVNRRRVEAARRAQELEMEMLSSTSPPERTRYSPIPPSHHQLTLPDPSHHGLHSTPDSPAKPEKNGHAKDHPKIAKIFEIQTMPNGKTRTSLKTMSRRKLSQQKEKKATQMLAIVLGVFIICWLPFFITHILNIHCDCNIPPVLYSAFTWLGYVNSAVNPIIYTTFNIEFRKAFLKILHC
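DiscoveRx PathHunter D2 beta-arrestin cells (2,100/well) attached overnight, then compound-stimulated 90 min at 37 C in HBSS/10 mM HEPES/0.1% Tween-20 buffer; beta-galactosidase complementation read by luminescence after 1 h at ambient temperature. Dopamine 57 uM final (EC100) as control.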
TRPML1 ag – qHTS for Agonists of the Human Mucolipin Transient Receptor Potential 1 (TRPML1); AID 624414, 2012; TRPML1-expressing cells, Ca2+ dye fluorescence, FDSS; host cell line not named in the record; reference of the full effect not given here; actives 0.12% (n = 410,000); activation, % (test concentration not listed); Mucolipin-1 (Homo sapiens), Q9GZU1; in the data active = activation above about 50%; inconclusive = about 30% to 50%; inactive = below about 30%; note: 0% is about no effect; the text of the record puts the active cut at 80%
Target sequence (Q9GZU1 whole entry, looked up): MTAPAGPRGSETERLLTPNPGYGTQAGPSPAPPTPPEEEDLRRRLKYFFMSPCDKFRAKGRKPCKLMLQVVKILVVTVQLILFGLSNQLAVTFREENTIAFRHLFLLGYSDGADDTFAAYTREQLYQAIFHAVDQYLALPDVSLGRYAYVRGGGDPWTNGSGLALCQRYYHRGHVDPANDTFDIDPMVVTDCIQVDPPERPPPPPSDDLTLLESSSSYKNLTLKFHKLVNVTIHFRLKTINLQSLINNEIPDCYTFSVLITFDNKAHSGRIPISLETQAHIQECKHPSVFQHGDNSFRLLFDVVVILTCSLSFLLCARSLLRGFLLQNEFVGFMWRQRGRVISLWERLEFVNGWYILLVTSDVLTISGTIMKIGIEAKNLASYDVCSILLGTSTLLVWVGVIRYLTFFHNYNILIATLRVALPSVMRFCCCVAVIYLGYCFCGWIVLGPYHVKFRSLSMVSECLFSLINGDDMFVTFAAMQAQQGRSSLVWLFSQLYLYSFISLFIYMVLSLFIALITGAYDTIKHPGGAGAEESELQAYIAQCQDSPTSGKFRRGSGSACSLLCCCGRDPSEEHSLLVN
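Kinetic FDSS Ca2+ read in Tet-induced TRPML1-DL cells (ABD Ca8 dye plus quencher, 45-90 min RT loading): baseline, then compound, then 110 s agonist window; EC80 agonist 54-4 at 4uM final added afterwards for a 110 s antagonist window.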
TRPML1 blocker – qHTS for Inhibitors of the Human Mucolipin Transient Receptor Potential 1 (TRPML1). TRPML1-inducible cells, Ca2+ dye fluorescence, FDSS; stronger effect = lower value; inhibition of EC80 agonist-evoked calcium signal. activity change, negative = inhibition, % (no concentration beside the values). actives 0.02% (n = 390,000). AID 624415, 2012; in the data active means activity change below about -50%; inconclusive means about -30% to -50%; inactive means above about -30%;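 note: stimulus is agonist 54-4 at its EC80 concentration; % is set by controls: 0 for no effect and ±100 for the full control effect; compound concentration not given in the record; the text of the record puts the active cut at -80%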
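Calcium fluorescence in TRPML1-DL cells induced overnight with Tet: a 110 s read after compound pin addition, then a 110 s antagonist read after challenge with 54-4 at 4 uM final (EC80).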
CtBP-E1A blk – qHTS Assay for Inhibitors of the CtBP/E1A Interaction; CtBP / adenovirus E1A interaction (AlphaScreen); AlphaScreen GST-E1A/His-CtBP binding, 1536-well; stronger effect = lower value; control for the full effect not named in the record; activity change, % (concentration not given with the values); actives 0.49% (n = 340,000); AID 651724, 2012; in the data active means activity change below about -65%; inconclusive means about -30% to -65%; inactive means above about -30%; note: % is set by controls: 0 for no effect and ±100 for the full control effect
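GST-E1A and His-tagged CtBP (125 nM each as 5X stock) were preincubated with pin-transferred compound for 2 h at 37 °C in the dark, then glutathione donor and nickel acceptor beads were added for 1 h before AlphaScreen reading.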
The depositor's hits bear a star; ? = inconclusive; . = no result given; & = joins results of further samples; [ ] = dose if it differs, or a comment.

SMILES	Six1-Eya2 inh	PINK1 modulator	D2 ag	TRPML1 ag	TRPML1 blocker	CtBP-E1A blk
O=C(Cn1c(=O)oc2ccccc21)N1CCCC1	4	-0.8%	8.8	0.4	18	0
Cc1ccc(NC(=O)Cn2ccnc2)cc1C	1	0.4%	0.9	-0.6	34	.
CC(=O)n1nc(-c2ccc(C)cc2)nc1NCc1ccco1	0	2.7%	3.4	1.9	-6	-1
O=C(OCc1nc2scc(-c3ccccc3)c2c(=O)[nH]1)c1ccco1	-14	-7.4%	-3.3	0.8	8	-3
CC1(Cc2ccc(F)cc2)C(=O)Nc2ccc(S(=O)(=O)NC3CCCCC3)cc21 (stereo unspecified)	3	-0.9%	5.3	0.1	.	2
O=C(Nc1sc2c(c1C(=O)NCc1ccco1)CCCC2)c1cc(=O)c2ccccc2o1	.	-0.6%	.	2.5	-11	.
c1ccc2c(c1)ccc1nnnn12	1	-0.1%	-2.1	0.6	-10	-2
Cc1c(C(=O)NN)sc(-c2ccccc2)c1C#N	-9	8.8%	-4.1	-0.7	4	3
COc1cccc(C2=NN(C(=O)c3ccc(C)o3)C(O)(C(F)(F)F)C2)c1 (stereo unspecified)	-20	14%	-4.9	2.0	-13	0
COc1cccc(-c2nc(C=O)cs2)c1	5	-0.2%	-3.8	2.3	2	-6
O=C(Nc1cccnc1Oc1ccc(Cl)cc1)c1cccc2ccccc12	9	7.0%	4.2	3.7	-1	8
O=C(COC(=O)c1ccccc1SCC(=O)N1CCCC1)Nc1ccc(OC(F)F)cc1	-2	0.6%	-4.2	-0.1	-8	10
Cc1ccc(NC(=O)COc2ccc(CCO)cc2-n2nc3ccccc3n2)cc1C	-6	2.3%	0.0	2.8	6	-20
Cc1cc(-c2ccc(C(C)C)c(S(=O)(=O)NCc3ccco3)c2)on1	-7	-0.5%	0.8	-0.7	-5	-7
COc1ccc(NC(=O)c2cc(-c3ccc(OC)c(OC)c3)nc3ccccc23)c(OC)c1	5	5.0%	3.2	1.1	0	-3
CCCCn1c(=O)c(-c2ccccc2)c(O)c2ccccc21	0	-1.3%	0.2	3.4	4	-2
CN(c1ccccc1)S(=O)(=O)c1cccc(C(=O)Nc2ccc3c(c2)CCC3)c1	-4	2.9%	-0.6	0.8	9	3
Cc1cc(C(=O)N/N=C/C=C/c2cccc([N+](=O)[O-])c2)n[nH]1	-25	1.0%	3.2	1.9	12	.
COc1ccc(CC(=O)Nc2c3c(nn2C(C)(C)C)CS(=O)(=O)C3)cc1	-1	-1.4%	1.0	1.1	2	8
COc1ccc(NC(=O)c2ccc(N3CCCC3=O)cc2)cc1Cl	1	5.3%	-1.5	1.4	-1	5
CCOc1cc(C)nc(NCCc2ccc(OC)c(OC)c2)n1	-9	.	3.2	2.9	29	10
CC(C)NC(=O)c1cc2cc([N+](=O)[O-])ccc2s1	-5	5.6%	-2.0	-0.7	4	-1
C=CCOc1nc2c(c(=O)n(C)c(=O)n2C)n1C	0	0.1%[38.3 µM]	-0.5	4.7	30	0
c1ccc(COc2ccc(Oc3nc(N4CCCCC4)nc(N4CCOCC4)n3)nn2)cc1	-1	-1.0%[38.3 µM]	-2.1	1.4	24	-4
O=C1C(=O)N(CCCO)C(c2ccc(Br)cc2)/C1=C(\O)c1ccc(Br)cc1 (stereo unspecified)	-2	0.0%	-2.3	.	.	.
CSCC[C@H](NC(=O)[C@H]1CC[C@H](CNC(=O)[C@@H]2CCCN2)CC1)C(=O)O	3	0.7%	1.6	-0.2	-4	.
Cc1ccc(S(=O)(=O)CCC(=O)Nc2cccc(S(=O)(=O)N3CCCCCC3)c2)cc1	-1	-0.2%	-6.6	1.5	-27	-1
CC(=O)N1CCc2cc(S(=O)(=O)NC(CC(C)C)C(=O)Nc3ccc(C(C)C)cc3)ccc21 (stereo unspecified)	.	0.7%	.	-0.5	-15	.
COc1ccc(S(=O)(=O)NCCC(C)C)cc1OC	5	-0.2%[38.3 µM]	-0.2	-0.4	-16	4
Cc1ccccc1OCCC(=O)OCC(=O)Nc1ccc(C)c(S(=O)(=O)N2CCCCC2)c1	-11	2.0%	1.8	0.6	-1	-3
COc1ccc(NC(=O)CSc2nnc(-c3cccnc3)o2)cc1	1	-1.0%[38.3 µM]	-1.5	2.9	-5	0
Cc1ccccc1C(=O)NC(=S)N(CCO)Cc1ccccc1	-3	0.2%	2.6	-1.2	11	9
COc1cccc(C(=O)Nc2c3c(nc4c2CCC4)CCCC3)c1	-2	0.3%	0.1	2.2	-6	2
COc1ccc(C(=O)c2[nH]c(N)c(C(=O)NCCc3c[nH]c4ccccc34)c2-c2ccc(C(F)(F)F)cc2)cc1	-1	1.2%	.	-0.3	.	0
CCOc1ccc(C(=O)N(CN2CCCC2=O)c2ccc(C)cc2)cc1	3	0.8%[38.3 µM]	-2.1	0.4	-9	-1
CCOc1ccc(NC(=O)C2(c3cccs3)CCOCC2)cc1	.	2.4%	.	-0.5	29	.
CCN1CCCC(Sc2nc3c([nH]2)c(=S)n(C)c(=O)n3C)C1 (stereo unspecified)	-14	0.9%	-2.2	-0.7	8	.
CCOC(=O)c1scc(-c2ccc(C)cc2)c1S(=O)(=O)N1CCN(c2ccccc2F)CC1	.	4.9%	.	0.2	17	.
CCOc1ccc(CCNC(=O)c2cc3cccc4c3n2CCS4)cc1	.	1.0%	.	0.7	-1	.
COc1ccc(C2c3[nH]c4ccccc4c3CCN2C(=O)c2ccccc2C(C)=O)c(F)c1 (stereo unspecified)	-13	4.3%	-1.0	1.2	26	-1
CCN(CC)CCCNC(=O)C1CCCN(c2nnc(N3CCCC3=O)s2)C1 (stereo unspecified)	0	-0.6%	1.5	-0.3	-2	1
CCOC(=O)Cc1csc(NC(=O)C(NC(=O)C2CCC(C)CC2)C(C)C)n1 (stereo unspecified)	2	1.3%	-0.7	4.9	1	.
Cc1csc(NC(=O)C2CCN(S(=O)(=O)c3ccccc3F)CC2)n1	-3	-0.1%	-4.8	0.5	28	1
Oc1ccc(-c2cn3c(n2)SCC3)cc1	3	-0.6%	-3.7	0.8	34	-2
Cc1ccc(CNS(=O)(=O)c2ccc(Cl)s2)cc1	12	5.9%	-1.9	0.9	7	-4
Cc1cccc(C)c1NC(=O)C1CCCN1S(=O)(=O)c1cccc2nsnc12 (stereo unspecified)	.	1.7%	.	-1.2	2	.
FC(F)Sc1nc(-c2ccccc2)c(-c2ccccc2)n1C(F)F	-3	7.8%	0.9	1.6	-9	0
Cc1noc(C)c1COc1ccc(C(=O)OCC(N)=O)cc1	-2	-0.4%	-5.4	-0.4	9	0
CC(C)C(=O)N1CCC2(CC1)Oc1ccc(F)cc1C(=O)C21CC(c2ccccc2)=NO1 (stereo unspecified)	0	-1.2%	0.5	-0.9	-2	0
COc1cc(C(=O)Nc2ccc(-c3nc4ccccc4o3)c(O)c2)cc(OC)c1OC	.	0.8%	.	1.0	20	.
O=C(O)c1ccc(COc2ccc([N+](=O)[O-])cc2Cl)cc1	1	1.0%	-0.9	0.0	8	4
C#CCOCCOCCOCCNc1nc(N2CCN(C(=O)[C@H](CCCCN)n3cc(CCCC)nn3)CC2)nc(N2CCN(C(=O)[C@H](CCCCN)n3cc(CCCC)nn3)CC2)n1	9	1.3%	-3.2	0.4	1	.
CC(=NCc1ccc2c(c1)OCO2)C1=C(O)c2ccccc2C1=O	-1	0.7%[38.3 µM]	-3.6	0.2	14	12
COc1ccc(OC)c(CN2CCN(Cc3cccc4ccccc34)CC2)c1	?	9.5%	11	4.9	38	.
COc1ccc(Cn2c(C(=O)O)c(CNCC(C)c3ccccc3)c3ccc(OC)cc32)cc1 (stereo unspecified)	.	-0.3%	.	1.1	14	.
COc1ccc(CCNC(=O)CSc2nnc(-c3ccc(F)cc3)c3ccccc23)cc1OC	-3	-1.9%	-1.8	2.5	20	-5

Entries of single compounds, quoted from the list:
Entry for `O=C(Nc1cccnc1Oc1ccc(Cl)cc1)c1cccc2ccccc12` = Six1-Eya2 inh = 9; PINK1 modulator = 7.0%; D2 ag = 4.2; TRPML1 ag = 3.7; TRPML1 blocker = -1; CtBP-E1A blk = 8
Entry for `Cc1c(C(=O)NN)sc(-c2ccccc2)c1C#N` = Six1-Eya2 inh = -9; PINK1 modulator = 8.8%; D2 ag = -4.1; TRPML1 ag = -0.7; TRPML1 blocker = 4; CtBP-E1A blk = 3

(continued)
SMILES	Six1-Eya2 inh	PINK1 modulator	D2 ag	TRPML1 ag	TRPML1 blocker	CtBP-E1A blk
OC(CNC1Cc2ccccc2C1)COc1ccc(Cl)cc1 (stereo unspecified)	-1	16%	-11	2.0	-13	5
Cc1ccc(C(=O)NN2C(=O)C3C4C=CC(C4)[C@@H]3C2=O)cc1 (stereo partly specified)	6	2.2%	-7.5	-0.7	5	.
COc1ccc(N2CC(NC(=O)c3c(F)cccc3Cl)CC2=O)cc1OC (stereo unspecified)	.	-0.8%	.	0.0	-7	.
COc1nc(-c2ccc(C)cc2)ccc1-c1noc(-c2ccc(C(C)(C)C)cc2)n1	.	0.2%	.	0.0	-12	.
CC[C@H]1c2[nH]c3ccc(C(C)C)cc3c2[C@@H]2CCN3C(=O)CCC[C@H]1[C@H]23	-6	2.3%	-0.7	-1.1&-0.1	-5	2
Cc1ccc(NC(=O)C2CC(=O)N(Cc3ccccc3)C2)cc1S(=O)(=O)N1CCCCCC1 (stereo unspecified)	-2	6.4%	0.4	-0.2	-3	-6
COCCCNCCCCOc1cccc(Br)c1	3	1.4%	-0.6	-0.2	-6	-5
Cc1cccc(N2CCn3c2nc2c3c(=O)n(C/C=C/c3ccccc3)c(=O)n2C)c1	.	1.3%	.	-0.4	10	.
O=S(=O)(c1cccc(-c2nc3ccccc3s2)c1)N1CCOCC1	-2	?	-2.9	-0.4	42	-7
Cc1ccc(C(=O)/C=C/c2c[nH]c3ccccc23)cc1	1	0.5%[38.3 µM]	-2.1	0.1	-2	4
Cc1oc(-c2ccc(C(=O)Nc3ccccc3F)cc2)nc1COc1ccccc1	.	1.4%	.	1.1	25	.
COCCN(CC(=O)NCC1CCCO1)C(=O)CCC(=O)Nc1ccccn1 (stereo unspecified)	13	0.3%	-2.3	-0.5	-14	4
O=C(NC(=S)Nc1ccc(S(=O)(=O)Nc2nccs2)cc1)c1cccnc1	4	0.4%	-9.1	-0.7	-10	5

Not a hit list; about 1% have a hit in one of these screens.
